VACV mCherry inh: qHTS for Stage-Specific Inhibitors of Vaccinia Orthopoxvirus: mCherry Reporter Primary qHTS; 0.63% of 310,000 active; Potency, µM (highest dose often 36.5 µM), for inactives: at the highest dose activity change, negative = inhibition, hits mostly inhibitors; Vaccinia virus mCherry reporter infection, fluorescence; about a quarter of the inactives have no number; AID 720579, 2013; active = well fitted inhibition curve with a large enough effect; inconclusive = small, poorly fitted or top-dose-only effect; inactive = no such curve, though single readings can be large or run the other way; tested in A549 cells; further: nearly all actives have a fitted effect of over 35% in size; inactives centre near -10
VACV Venus inh: qHTS for Stage-Specific Inhibitors of Vaccinia Orthopoxvirus: Venus Reporter Primary qHTS; Potency, µM (top dose mostly 36.5 µM), inactives show at the highest dose activity change, negative = inhibition, most hits filed as inhibitors; Vaccinia virus Venus reporter expression, fluorescence; 0.46% of 330,000 active; active means well fitted inhibition curve with a large enough effect; inconclusive means small, poorly fitted or top-dose-only effect; inactive means no such curve, though single readings can be large or run the other way; tested in A549 cells; further: nearly all actives have a fitted effect of over 30% in size; inactives centre near -10
Numbers without * were called inactive; i = inactive; ? = inconclusive; . = not tested or not shown; [ ] = dose if it differs, or a comment. On the % scale 0 is the no-effect control and ±100 the full control effect; potency means the concentration at half of the fitted maximal effect.

SMILES | VACV mCherry inh | VACV Venus inh
O=C1CC(c2ccco2)Cc2nc(N3CCN(Cc4ccc5c(c4)OCO5)CC3)ncc21 (centres undefined) | . | 7%
Cc1cccc(CS(=O)(=O)c2ncc(Cl)c(C(=O)Nc3nnc(C(C)C)s3)n2)c1 | -7% | -6%
O=C(Cn1ncc2c1-c1ccccc1OC2)Nc1ccc(S(=O)(=O)N2CCCCC2)cc1 | -20% | ?
O=C(Cn1cnc2c(cnn2-c2ccc(F)cc2)c1=O)NCCc1ccccc1 | i | -9%
Cc1cc(/C=C2\C(=N)N3N=C(c4ccco4)SC3=NC2=O)c(C)n1Cc1ccccc1 | -11% | -11%
CN(C)c1ccc(S(=O)(=O)NCC(=O)N2CCN(S(=O)(=O)c3cccc(F)c3)CC2)cc1[N+](=O)[O-] | -19% | -13%
CCC(C)n1c(-c2cccs2)nc2nc3ccccc3nc21 (centres undefined) | . | -10%
COc1ccc(NC(=O)c2ccc(NC3CC(=O)N(c4ccc(C)cc4C)C3=O)cc2)cc1 (centres undefined) | -10% | -6%
C=CCn1c(=S)[nH]c2scc(-c3ccc(C)o3)c2c1=O | -19% | -18%
C=CCOn1c(C)c(C(C)=O)c2c3nonc3ccc21 | -9% | 3%
COc1ccc(S(=O)(=O)N2CCN(C)CC2)cc1C | -7% | 4%
CN(C(=O)Cn1nnc(-c2ccccc2)n1)C1CCS(=O)(=O)C1 (centres undefined) | -15% | -20%
CC(C(=O)NC(=O)NCc1ccccc1)N1C(=O)c2ccccc2C1=O (centres undefined) | . | -5%
CC#CCN1c2ccccc2[C@]23C[C@@H](C(=O)OC)N(C(=O)c4ccco4)C2=NC(C(=O)OC)=C(C(=O)OC)[C@H]13 | ? | ?
O=C(Nc1ccc2oc(-c3cccnc3)nc2c1)c1ccc(-c2ccccc2OC(F)(F)F)o1 | -16% | -7%
CN(C(=O)CSc1nc2ccc(NC(=O)COc3ccccc3Cl)cc2s1)c1ccccc1 | -18% | ?
COc1ccc(Cl)cc1NC(=O)C1CCCO1 (centres undefined) | -18% | -6%
COCCNC(=S)N(CCc1c(C)[nH]c2ccc(OC)cc12)Cc1ccco1 | -17% | -14%
C/C(=N\Nc1ccc(C(=O)O)cc1)c1ccc2c(c1)Nc1ccccc1S2 | ? | -20%
Nc1[nH]c(N=NC(=O)c2ccc(Cl)cc2)c2ccccc12 | ? | -16%
CCS(=O)(=O)c1nc2ccccc2n1CC(=O)N1CCOCC1 | . | -3%
CCn1c(=O)c2sccc2n2c(CCC(=O)Nc3ccc(OC)cc3OC)nnc12 | -5% | -13%
C#CCOCCOCCOCCNc1nc(N2CCN(C(=O)CCCCCCCCCCNC(=O)[C@H]([C@@H](C)CC)n3cc(CCCCCN)nn3)CC2)nc(N2CCN(C(=O)CCCCCCCCCCNC(=O)[C@H](CCCCN)n3cc(CCCC(=O)O)nn3)CC2)n1 | ? | ?
COC(=O)c1cc(=O)n(CCc2ccccc2F)c(=Nc2ccc(F)c(Cl)c2)s1 | ? | ?
CC(=O)N1CCc2c(sc(NC(=O)C3CCCCC3)c2C(N)=O)C1 | -17% | 0%
Cc1ccc(-c2cccc(C(=O)NCc3ccccc3)n2)c2ccccc12 | -13% | -21%
Cc1ccc(NC(=O)C2CCCN(C(=O)c3cnn(-c4ccc(F)cc4)c3-n3cccc3)C2)c(Cl)c1 (centres undefined) | -22% | -21%
Cc1ccc(C(=O)N(Cc2ccc(N(C)C)cc2)CC2CCCO2)cc1 (centres undefined) | -3% | -9%
O=C(CSc1nc(-c2ccco2)cc(C(F)(F)F)n1)Nc1ccc(C(=O)N2CCOCC2)cc1 | . | -23%
Cc1cn2c(=O)c(S(=O)(=O)NC(C)c3ccccc3)c(C)nc2s1 (centres undefined) | -14% | -3%
CCCCc1ccc(C(=O)O)nc1 | 0% | -7%
O=C(CCC(=O)c1ccc(Cl)cc1)OCC(=O)c1ccccc1 | -4% | -8%
Cc1cccc(C(=O)NCC2Cc3cc(F)cc(-c4cnccn4)c3O2)n1 (centres undefined) | -7% | 1%
CC(=O)c1cc(NC(=O)c2ccccc2)c(=O)oc1C | -14% | -7%
COC(=O)C1(CC2CC(c3cccc(Br)c3)=NO2)CCN(C(=O)OC(C)(C)C)CC1 (centres undefined) | 5% | -10%
COc1cccc(CN2C(=O)Nc3ccccc3C(=O)N2C(C)(C)C)c1 | i | -12%
CC(C)(CO)NC(=O)Nc1ccc(Cl)c(Cl)c1 | 4% | -12%
COc1ccc(C(=O)NC(=O)CSc2n[nH]c(N)n2)cc1 | i | 5%
O=C(COC(=O)c1ccccc1SCC(=O)NC1CCS(=O)(=O)C1)NC1CCS(=O)(=O)C1 (centres undefined) | i | 18%
O=C(NC(=S)Nc1ccccc1O)c1cccnc1 | ? | -8%
C=CCN(c1ccccc1OC)S(=O)(=O)c1cccc(C(=O)OCC(=O)c2c(N)n(C)c(=O)n(C)c2=O)c1 | -17% | ?
O=C(Cn1c(CN2CCCCC2)nc2ccccc2c1=O)Nc1ccccc1 | -12% | -15%
Cc1c(C(=O)NC2CCCCCC2)sc2ncnc(NCC3CCCO3)c12 (centres undefined) | -10% | -9%
CCS(=O)(=O)N1Cc2cc(C(=O)NCC3CC3)nc(-c3cccc(-c4cccnc4)c3)c2[C@@H]1CCO | i | ?
COc1ccc(-c2c(-c3ccc(OC)c(C)c3O)n[nH]c2C)cc1 | -30% | -28%
Cc1ccc(C(=O)OCC(=O)N(CC(C)C)c2c(N)n(Cc3ccccc3)c(=O)[nH]c2=O)s1 | -12% | -15%
CCOc1ccc2[nH]cc(C(=O)N3CCN(CC)CC3)c(=O)c2c1 | -14% | -10%
Cn1nnnc1SCC(=O)Nc1cc(C(=O)O)cc(C(=O)O)c1 | i | -9%
COc1ccc(-c2noc(CSc3nnc(-c4ccccc4)n3C)n2)cc1 | -21% | -3%
COc1ccc(Cl)cc1Nc1ncnc2sc(C)c(S(=O)(=O)N3CCC(C)CC3)c12 | -9% | -15%
COc1ccccc1NC(=O)c1ccc(NS(C)(=O)=O)cc1 | -1% | 0%
CC(=O)N1CCN(C(=O)CSc2nc3c(cnn3-c3ccccc3)c(=O)[nH]2)CC1 | -15%[1.46 µM] | -10%
Cc1ccccc1NC(=O)Cn1c(C)nc2ccc(N)cc2c1=O | . | -15%
O=C(NC1(C(F)(F)F)NC(=O)N(Cc2cccnc2)C1=O)c1ccncc1 (centres undefined) | i | -22%
COC(=O)/C=C1\OCc2cc(OC)c(OCc3ccccc3)cc21 | 4% | -6%
COc1cc2oc(=O)cc(-c3cccc(-c4cccc(C)c4)c3)c2c(OC)c1OC | i | 0%
CCNC(=O)C1CC(=O)N(c2ccc(OCC)cc2)C1 (centres undefined) | -15% | -1%
CN(C)C(CNc1ncnc2sc3c(c12)CCCC3)c1ccco1 (centres undefined) | ? | -17%
CCC(C)N1C(=O)S/C(=C/c2ccc(N3CCOCC3)cc2C)C1=O (centres undefined) | i | 4%
CC(C)c1ccc(N(C(=O)c2ccco2)C(C(=O)NC2CCCC2)c2ccncc2)cc1 (centres undefined) | -12% | -17%

(more compounds)
SMILES | VACV mCherry inh | VACV Venus inh
COc1ccc(S(=O)(=O)N[C@H]2CC[C@H](CCNC(=O)c3ccccc3F)O[C@@H]2CO)cc1 | 8% | -4%
CCC(=O)N1CCCC(C)(C(=O)NS(=O)(=O)c2ccccc2Cl)C1 (centres undefined) | 4% | 5%
c1ccc(-c2ccc(CNC3CC3)cc2)cc1 | -17% | -12%
Clc1cccc(N/N=C/c2ccc(N3CCOCC3)cc2)c1 | -9% | -7%
COC(=O)c1ccccc1NC(=S)NC(NC(=O)c1ccco1)C(Cl)(Cl)Cl (centres undefined) | -10% | -2%
OCCN1CCN(c2ncnc3c2ncn3[C@H]2CN(Cc3ccccc3)C[C@@H](CO)O2)CC1 | -6% | -4%
CC1CCN(S(=O)(=O)c2ccc(C(=O)Nc3nnc(-c4ccncc4)o3)cc2)CC1 | ? | -23%
Cc1nc2c(-c3ccccc3)c(C)nn2c(C)c1CCC(=O)NCc1ccc(F)cc1 | 1% | -10%
O=C(NNC(=O)c1ccccc1[N+](=O)[O-])c1cnccn1 | i | -3%
Cc1ccc(S(=O)(=O)N(CC(=O)Nc2ccc3c(c2)OCO3)c2cc(Cl)cc(Cl)c2)cc1 | i | -5%
COc1ccccc1N1CCN(S(=O)(=O)c2c(C)[nH]c(C)c2C(=O)N2CCCCC2)CC1 | i | -18%
CCOc1ncccc1C(=O)NNC(=O)c1ccc(NS(=O)(=O)c2cccs2)cc1 | -10% | -5%
CN(C)CCOC(=O)NCC12CC3CC(CC(C3)C1)C2 | -9% | -20%
Cc1cccc(C(=O)N[C@H](C(=O)NCCc2ccc(S(N)(=O)=O)cc2)C(C)C)c1 | -11% | -1%
COC(=O)CCC(=O)NS(=O)(=O)c1ccc(N=NN2CCOCC2)cc1 | i | 4%
N#CCCn1cc(C=C(C#N)C#N)c(-c2ccc(-c3ccccc3)cc2)n1 | -17% | -22%
Cc1ccc(N(CC(=O)O)C2SC(=O)NC2=O)cc1 (centres undefined) | -16% | -13%
O=S(=O)(c1ccccc1C(F)(F)F)N1CCN(CC(O)COc2ccccc2F)CC1 (centres undefined) | i | -16%
COc1ccc(NC(=O)c2nnn(CC(=O)Nc3cccc(C)c3C)c2N)c(OC)c1 | -24% | -19%
O=S(=O)(NCC(c1ccco1)N1CCc2ccccc2C1)c1ccc(F)cc1 (centres undefined) | ? | -5%
COCc1cc(Sc2ccc(OC)cc2)nc(-c2ccccc2)n1 | -1% | -11%
O=C(NCc1cccc(Cl)c1)c1cccn1-c1nnc(N2CCCC2)s1 | -18% | -17%
Cc1ccc(S(=O)(=O)Nc2cccc3c2O[C@H](CN(C)C(=O)Nc2cccc4ccccc24)[C@H](C)CN([C@H](C)CO)C3=O)cc1 | ? | ?
Cc1c(Cl)cccc1Nc1nn2c(=O)c3ccccc3nc2s1 | -23% | -26%
O=C(Nc1nc(-c2ccccn2)cs1)C1CCCC1 | ? | ?
COc1ccc(C(=O)NNC(=O)c2ccccc2[N+](=O)[O-])cc1Br | ? | -18%
Cc1nc2n[nH]c(N)c2c2c1COC(C)(C)C2 | . | 0%
COc1ccc(Cl)c2sc(N3CCN(C(=O)C4=COCCO4)CC3)nc12 | -6% | -24%
Cn1c(CO)cnc1SCc1ccc([N+](=O)[O-])cc1 | . | -11%
CCOC(=O)C1CCCN(c2c(C(=O)c3ccccc3)cnc3ccc(F)cc23)C1 (centres undefined) | -9% | 4%
NC(=O)NC(=O)COC(=O)c1sc2ccccc2c1Cl | i | 0%
COC(=O)[C@@H]1N=C(c2ccc(OC)cc2)O[C@]12C(=O)N(Cc1ccc(OC)cc1)c1ccccc12 | -27% | -24%
Cc1cccn2c(=O)c(/C=C(\C#N)c3nc4ccccc4n3C)c(Oc3ccc(Br)cc3)nc12 | -3% | 6%
OCCC1CN(Cc2ccc3cc(Cl)ccc3n2)CCN1Cc1ccsc1 (centres undefined) | -13% | -9%
Cc1cc(C)cc(N(CC(=O)Nc2cccc(C)c2C)S(=O)(=O)c2c(C)[nH]c(=O)[nH]c2=O)c1 | -5% | 10%
CCN(c1ccccc1)S(=O)(=O)c1cc(-c2onc(C)c2C)ccc1OC | -3% | -28%
CCc1ccccc1NC(=O)c1ccc(F)c(S(=O)(=O)N2CCC(C(N)=O)CC2)c1 | -6% | -4%
O=C(/C=N/O)NCCCN1CCCCCC1 | -11% | -8%

Filtered by structure: the entries above containing fluorine (14)
SMILES | VACV mCherry inh | VACV Venus inh
O=C(Cn1cnc2c(cnn2-c2ccc(F)cc2)c1=O)NCCc1ccccc1 | i | -9%
CN(C)c1ccc(S(=O)(=O)NCC(=O)N2CCN(S(=O)(=O)c3cccc(F)c3)CC2)cc1[N+](=O)[O-] | -19% | -13%
O=C(Nc1ccc2oc(-c3cccnc3)nc2c1)c1ccc(-c2ccccc2OC(F)(F)F)o1 | -16% | -7%
COC(=O)c1cc(=O)n(CCc2ccccc2F)c(=Nc2ccc(F)c(Cl)c2)s1 | ? | ?
Cc1ccc(NC(=O)C2CCCN(C(=O)c3cnn(-c4ccc(F)cc4)c3-n3cccc3)C2)c(Cl)c1 (centres undefined) | -22% | -21%
O=C(CSc1nc(-c2ccco2)cc(C(F)(F)F)n1)Nc1ccc(C(=O)N2CCOCC2)cc1 | . | -23%
Cc1cccc(C(=O)NCC2Cc3cc(F)cc(-c4cnccn4)c3O2)n1 (centres undefined) | -7% | 1%
O=C(NC1(C(F)(F)F)NC(=O)N(Cc2cccnc2)C1=O)c1ccncc1 (centres undefined) | i | -22%
COc1ccc(S(=O)(=O)N[C@H]2CC[C@H](CCNC(=O)c3ccccc3F)O[C@@H]2CO)cc1 | 8% | -4%
Cc1nc2c(-c3ccccc3)c(C)nn2c(C)c1CCC(=O)NCc1ccc(F)cc1 | 1% | -10%
O=S(=O)(c1ccccc1C(F)(F)F)N1CCN(CC(O)COc2ccccc2F)CC1 (centres undefined) | i | -16%
O=S(=O)(NCC(c1ccco1)N1CCc2ccccc2C1)c1ccc(F)cc1 (centres undefined) | ? | -5%
CCOC(=O)C1CCCN(c2c(C(=O)c3ccccc3)cnc3ccc(F)cc23)C1 (centres undefined) | -9% | 4%
CCc1ccccc1NC(=O)c1ccc(F)c(S(=O)(=O)N2CCC(C(N)=O)CC2)c1 | -6% | -4%
